# Source: PubChem (Broad Institute)
# UUG fidelity = yeast start codon fidelity modulation; S. cerevisiae UUG-firefly luciferase reporter, luminescence/redox ratio; AID 602363; actives 0.13% (n = 350,000); activity score, % at 18.7 µM;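 active = replicate mean at a twofold rise or more, about +100% in these data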;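 note: firefly luciferase made from a UUG start codon reports start codon fidelity; reporter light over untreated wells divided by growth signal over untreated wells; some hits fall short of that in this replicate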
# Env fusion inh = blocks HIV Env-driven cell-cell fusion; HeLa-JRFL Env/CEM21 cell fusion, luciferase; inhibition, % at 12.3 µM; actives 1.1% (n = 360,000);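 active = mean replicate inhibition score of at least 50 and every replicate individually at or above 50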;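 note: 0% = plate neutral controls and 100% = maraviroc near 300 nM; one replicate is shown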
# The depositor's hits bear a star; [ ] = dose if it differs, or a comment.
SMILES,UUG fidelity,Env fusion inh
Cc1noc(C)c1NC(=O)Nc1cccc2c1O[C@@H](CN(C)Cc1ccc(Cl)c(Cl)c1)[C@@H](C)CN([C@@H](C)CO)C2=O,-7,-9[16.7 µM]
C[C@@H]1CN([C@H](C)CO)C(=O)c2cc(NC(=O)c3ccncc3)ccc2O[C@@H](C)CCCCO[C@@H]1CN(C)C(=O)C1CCCCC1,-2,12[16.7 µM]
Cc1noc(C)c1S(=O)(=O)Nc1ccc2c(c1)C(=O)N([C@@H](C)CO)C[C@@H](C)[C@H](CN(C)Cc1ccc(C(=O)O)cc1)OCCCC[C@@H](C)O2,8,-6[16.7 µM]
C[C@@H]1CN([C@H](C)CO)S(=O)(=O)c2ccc(C#Cc3ccccc3F)cc2O[C@@H]1CN(C)C,7,0[16.7 µM]
C[C@H]1CCCCO[C@H](CN(C)S(=O)(=O)c2ccc(Cl)cc2)[C@@H](C)CN([C@@H](C)CO)C(=O)c2cc(NS(C)(=O)=O)ccc2O1,14,-1[16.7 µM]
COc1ccccc1S(=O)(=O)N[C@@H]1CC[C@H](CCNC(=O)C2CC2)O[C@H]1CO,-2,-1[16.7 µM]
O=C(C[C@H]1C[C@@H]2c3cc(NC(=O)Cc4ccncc4)ccc3O[C@@H]2[C@H](CO)O1)NCC1CC1,7,2[16.7 µM]
C[C@@H]1CN([C@H](C)CO)C(=O)Cc2cc(NC(=O)CCC(F)(F)F)ccc2O[C@@H]1CN(C)C(=O)Nc1ccc(C(F)(F)F)cc1,1,-6[16.7 µM]
CCCNC(=O)N[C@@H]1C=C[C@H](CC(=O)NC2CCCCC2)O[C@@H]1CO,-3,-8[16.7 µM]
CN(C)C(=O)C[C@@H]1C[C@H]2c3cc(NC(=O)Nc4ccccc4)ccc3O[C@H]2[C@H](CO)O1,3,3[16.7 µM]

# Among those listed so far, 4 contain a halogen.
SMILES,UUG fidelity,Env fusion inh
Cc1noc(C)c1NC(=O)Nc1cccc2c1O[C@@H](CN(C)Cc1ccc(Cl)c(Cl)c1)[C@@H](C)CN([C@@H](C)CO)C2=O,-7,-9[16.7 µM]
C[C@@H]1CN([C@H](C)CO)S(=O)(=O)c2ccc(C#Cc3ccccc3F)cc2O[C@@H]1CN(C)C,7,0[16.7 µM]
C[C@H]1CCCCO[C@H](CN(C)S(=O)(=O)c2ccc(Cl)cc2)[C@@H](C)CN([C@@H](C)CO)C(=O)c2cc(NS(C)(=O)=O)ccc2O1,14,-1[16.7 µM]
C[C@@H]1CN([C@H](C)CO)C(=O)Cc2cc(NC(=O)CCC(F)(F)F)ccc2O[C@@H]1CN(C)C(=O)Nc1ccc(C(F)(F)F)cc1,1,-6[16.7 µM]

# Later entries:
SMILES,UUG fidelity,Env fusion inh
CN(C)C(=O)C[C@H]1C=C[C@@H](NC(=O)NC2CCCC2)[C@@H](CO)O1,-2,-15[16.7 µM]
COCC(=O)N(C)C[C@H]1Oc2cc(-c3cncnc3)ccc2S(=O)(=O)N([C@@H](C)CO)C[C@H]1C,-4,4[16.7 µM]
CN(C)CCCNC(=O)C[C@H]1CC[C@@H](NS(=O)(=O)c2ccc(F)cc2)[C@H](CO)O1,-4,-20[16.7 µM]
C[C@@H]1CN([C@@H](C)CO)C(=O)c2cc(/C=C/c3ccccc3)cnc2O[C@@H]1CN(C)C(=O)C1CCOCC1,-3,7[16.7 µM]
C/C=C/c1ccc([C@H]2[C@@H](CO)N(C(=O)NC3CCCCC3)[C@H]2C#N)cc1,30,0[16.7 µM]
CC(C)NC(=O)N(C)C[C@H]1OCCCC[C@@H](C)Oc2ccc(NS(=O)(=O)c3cccs3)cc2C(=O)N([C@@H](C)CO)C[C@H]1C,1,-22[16.7 µM]
COc1ccc(NC(=O)Nc2ccc3c(c2)[C@H]2C[C@@H](CC(=O)NCC4CC4)O[C@@H](CO)[C@H]2O3)cc1,-13,21[16.7 µM]
O=C(NCC[C@H]1CC[C@H](NS(=O)(=O)c2ccc(Oc3ccccc3)cc2)[C@H](CO)O1)C1CC1,0,20[16.7 µM]
Cc1noc(C)c1S(=O)(=O)N(C)C[C@H]1OCCCC[C@H](C)Oc2ccc(NS(C)(=O)=O)cc2C(=O)N([C@H](C)CO)C[C@H]1C,16,-17[16.7 µM]
C[C@@H]1CCCCO[C@H](CN(C)S(=O)(=O)c2ccc(F)cc2)[C@@H](C)CN([C@@H](C)CO)C(=O)c2cc(NC(=O)c3ccccc3)ccc2O1,1,-24[16.7 µM]
O=C(C[C@@H]1C=C[C@@H](NC(=O)c2ccncc2)[C@H](CO)O1)Nc1ccc(-c2ccccc2)cc1,-15,20[16.7 µM]
C[C@H]1CN([C@@H](C)CO)C(=O)c2cc(C#Cc3ccccn3)cnc2O[C@@H]1CN(C)Cc1cccnc1,6,-15[16.7 µM]
C[C@@H]1CN([C@H](C)CO)C(=O)c2cccc(NC(=O)Nc3cccc4ccccc34)c2O[C@H]1CN(C)C(=O)Nc1ccc(F)cc1,-12,18[16.7 µM]
C[C@@H]1CN([C@H](C)CO)S(=O)(=O)c2ccc(-c3ccccc3F)cc2O[C@@H]1CN(C)CC1CC1,7,-3[16.7 µM]
Cc1noc(C)c1NC(=O)Nc1ccc2c(c1)C(=O)N([C@H](C)CO)C[C@@H](C)[C@H](CN(C)S(=O)(=O)c1ccc(F)cc1)OCCCC[C@@H](C)O2,11,-2[16.7 µM]
C[C@H]1CCCCO[C@H](CN(C)C(=O)Cc2ccccc2)[C@@H](C)CN([C@@H](C)CO)C(=O)c2cc(NS(=O)(=O)c3ccc(Cl)cc3)ccc2O1,-8,25[16.7 µM]
C[C@@H]1CN([C@H](C)CO)C(=O)c2cc(C#CC3CCCCC3)cnc2O[C@@H]1CN(C)C(=O)NC1CCCC1,19,11[16.7 µM]
O=C(C[C@H]1C[C@H]2c3cc(NC(=O)C4CCOCC4)ccc3O[C@H]2[C@@H](CO)O1)NCc1ccccn1,-13,-20[16.7 µM]
O=C(Nc1ccc(C(F)(F)F)cc1)N[C@@H]1CC[C@@H](CCNC(=O)c2ccccc2F)O[C@@H]1CO,-9,26[16.7 µM]
CN1C(=O)c2cc(NC(=O)C3CCCC3)ccc2OC[C@H]2O[C@H](CC(=O)NCC3CC3)CC[C@H]21,1,18[16.7 µM]
CC(C)CC#Cc1cnc2c(c1)C(=O)N([C@H](C)CO)C[C@H](C)[C@@H](CN(C)C(=O)c1ccccc1)O2,15,-23[16.7 µM]
CCCNC(=O)Nc1ccc2c(c1)C(=O)N(C)[C@@H]1CC[C@@H](CC(=O)NC3CCC3)O[C@@H]1CO2,-2,2[16.7 µM]
Cc1noc(C)c1NC(=O)Nc1cccc2c1O[C@H](CN(C)C(=O)Nc1ccc(F)cc1)[C@H](C)CN([C@H](C)CO)C2=O,2,-35[16.7 µM]
C[C@H](CO)N1C[C@H](C)[C@H](CN(C)S(=O)(=O)c2cccs2)Oc2c(NC(=O)c3cnccn3)cccc2C1=O,-6,-18[16.7 µM]
COCC(=O)N[C@@H]1C=C[C@@H](CC(=O)NCc2ccccc2OC)O[C@@H]1CO,-11,4[16.7 µM]
O=C(C[C@H]1C[C@@H]2c3cc(NC(=O)Nc4ccccc4)ccc3O[C@@H]2[C@H](CO)O1)NCc1ccncc1,-13,13[16.7 µM]
C[C@H]1CN([C@@H](C)CO)C(=O)c2cccc(NC(=O)c3nc4ccccc4s3)c2O[C@@H]1CN(C)S(=O)(=O)c1ccc(F)cc1,-8,5[16.7 µM]
O=C(CCN1CCCCC1)NCC[C@H]1CC[C@@H](NC(=O)C2CCOCC2)[C@H](CO)O1,-8,-11[16.7 µM]
C[C@@H]1CCCCO[C@H](CN(C)C(=O)Nc2ccc3c(c2)OCO3)[C@H](C)CN([C@H](C)CO)C(=O)c2cc(NC(=O)CCC(F)(F)F)ccc2O1,6,45[16.7 µM]
COCCNC(=O)C[C@@H]1CC[C@@H]2[C@H](COC[C@@H](O)CN2C(=O)Nc2ccc3c(c2)OCO3)O1,6,-13[16.7 µM]

# Filtered by structure: those above with a CF3 group
SMILES,UUG fidelity,Env fusion inh
C[C@@H]1CN([C@H](C)CO)C(=O)Cc2cc(NC(=O)CCC(F)(F)F)ccc2O[C@@H]1CN(C)C(=O)Nc1ccc(C(F)(F)F)cc1,1,-6[16.7 µM]
O=C(Nc1ccc(C(F)(F)F)cc1)N[C@@H]1CC[C@@H](CCNC(=O)c2ccccc2F)O[C@@H]1CO,-9,26[16.7 µM]
C[C@@H]1CCCCO[C@H](CN(C)C(=O)Nc2ccc3c(c2)OCO3)[C@H](C)CN([C@H](C)CO)C(=O)c2cc(NC(=O)CCC(F)(F)F)ccc2O1,6,45[16.7 µM]

# Next part.
SMILES,UUG fidelity,Env fusion inh
Cc1ccc(S(=O)(=O)N(C)C[C@@H]2OCCCC[C@H](C)Oc3ccc(NS(=O)(=O)c4cccs4)cc3C(=O)N([C@@H](C)CO)C[C@@H]2C)cc1,6,12[16.7 µM]
Cc1ccc(S(=O)(=O)Nc2ccc3c(c2)CC(=O)N([C@H](C)CO)C[C@@H](C)[C@@H](CN(C)S(=O)(=O)c2c(C)noc2C)O3)cc1,1,-9[16.7 µM]
Cc1ccc(S(=O)(=O)N(C)C[C@H]2OCCCC[C@@H](C)Oc3ccc(NC(=O)Nc4ccccc4)cc3C(=O)N([C@@H](C)CO)C[C@@H]2C)cc1,-1,9[16.7 µM]
CN1C(=O)c2cc(NC(=O)c3cccs3)ccc2OC[C@H]2O[C@H](CC(=O)NCCN3CCCCC3)CC[C@H]21,23,-3[16.7 µM]
C[C@H](CO)N1C[C@H](C)[C@@H](CN(C)Cc2ccc(Oc3ccccc3)cc2)Oc2ccc(NC(=O)Cc3ccccc3)cc2CC1=O,24,10[16.7 µM]
CN1C(=O)c2cc(NC(=O)c3cscn3)ccc2OC[C@H]2O[C@H](CC(=O)N3CCOCC3)CC[C@@H]21,-17,-5[16.7 µM]
Cc1ccc(S(=O)(=O)N[C@@H]2CC[C@H](CCNC(=O)C3CCOCC3)O[C@@H]2CO)cc1,-3,18[16.7 µM]
C[C@@H]1CN([C@H](C)CO)S(=O)(=O)c2ccc(C3=CCCC3)cc2O[C@H]1CN(C)C(=O)Cc1ccncc1,26,-17[16.7 µM]
CCCC#Cc1ccc2c(c1)O[C@H](CN(C)C(=O)CC)[C@@H](C)CN([C@@H](C)CO)S2(=O)=O,3,-16[16.7 µM]
C[C@@H]1CCCCO[C@@H](CN(C)Cc2ccc(C(=O)O)cc2)[C@H](C)CN([C@@H](C)CO)C(=O)c2cc(NS(=O)(=O)c3ccc(F)cc3)ccc2O1,112*,-10[16.7 µM]
C[C@H](CO)N1C[C@H](C)[C@@H](CN(C)Cc2ccc(C(F)(F)F)cc2)Oc2c(cccc2N(C)C)C1=O,-4,2[16.7 µM]
O=S(=O)(N[C@@H]1CC[C@H](CCn2cc(-c3cccnc3)nn2)O[C@H]1CO)c1ccc(Cl)cc1,3,-14[16.7 µM]
C[C@H](CO)N1C[C@H](C)[C@H](CN(C)C(=O)CC2CC2)Oc2cc(-c3cncnc3)ccc2S1(=O)=O,-3,-8[16.7 µM]
C[C@H](CO)N1C[C@H](C)[C@@H](CN(C)Cc2ccccc2C(=O)O)Oc2ncc(C#CC3CC3)cc2C1=O,37,-6[16.7 µM]
C[C@@H]1CN([C@H](C)CO)C(=O)c2cc(NS(=O)(=O)c3ccccc3)ccc2O[C@@H](C)CCCCO[C@@H]1CN(C)S(C)(=O)=O,43,10[16.7 µM]
C[C@@H]1CN([C@@H](C)CO)C(=O)c2cc(C#Cc3ccccc3)cnc2O[C@@H]1CN(C)C(=O)C1CC1,6,0[16.7 µM]
Cc1ccc(S(=O)(=O)NCC[C@H]2CC[C@H](NC(=O)c3cccnc3)[C@@H](CO)O2)cc1,-6,-6[16.7 µM]
O=C(N[C@H]1CC[C@H](CCNS(=O)(=O)c2cccc(Cl)c2)O[C@@H]1CO)c1ccc(F)cc1,7,0[16.7 µM]
COc1ccccc1-c1cnc2c(c1)C(=O)N([C@@H](C)CO)C[C@@H](C)[C@H](CN(C)Cc1cccc(F)c1)O2,-2,2[16.7 µM]
COc1ccc(NC(=O)N(C)C[C@@H]2Oc3ncc(C#Cc4ccccc4)cc3C(=O)N([C@H](C)CO)C[C@@H]2C)cc1,-6,8[16.7 µM]
C[C@@H]1CN([C@@H](C)CO)C(=O)c2cc(NC(=O)Cc3ccccc3)ccc2O[C@@H]1CN(C)S(=O)(=O)c1ccccc1,5,-22[16.7 µM]
CO[C@H]1CN(C)C(=O)c2cc(NC(C)=O)ccc2OC[C@@H](C)N(Cc2ccccc2F)C[C@H]1C,-10,17[16.7 µM]
C[C@@H]1CN([C@H](C)CO)C(=O)c2cc(NS(=O)(=O)c3ccc(F)cc3)ccc2O[C@H]1CN(C)S(=O)(=O)c1ccccc1,21,11[16.7 µM]
O=C(Cc1ccccn1)N[C@@H]1CC[C@@H](CCNC(=O)c2cc(Cl)cc(Cl)c2)O[C@H]1CO,6,-9[16.7 µM]
C[C@@H]1CN([C@H](C)CO)C(=O)Cc2cc(NC(=O)C3CC3)ccc2O[C@@H]1CN(C)Cc1ccc(C(F)(F)F)cc1,6,8[16.7 µM]
COCC#Cc1cnc2c(c1)C(=O)N([C@@H](C)CO)C[C@@H](C)[C@@H](CN(C)C(=O)C1CCOCC1)O2,-13,8[16.7 µM]
COCc1cn(CC[C@H]2CC[C@H](NC(=O)Nc3ccc(F)cc3)[C@H](CO)O2)nn1,-11,3[16.7 µM]
C[C@@H](NC(=O)C[C@H]1CC[C@@H](NC(=O)Nc2ccc3c(c2)OCO3)[C@H](CO)O1)c1ccccc1,-6,7[16.7 µM]
C[C@@H]1CN([C@H](C)CO)C(=O)Cc2cc(NC(=O)CCCN(C)C)ccc2O[C@H]1CN(C)S(=O)(=O)c1ccc(F)cc1,1,0[16.7 µM]
C[C@@H]1CCCCO[C@H](CN(C)C(=O)Nc2ccc(F)cc2)[C@H](C)CN([C@@H](C)CO)C(=O)c2cc(NS(=O)(=O)c3cccs3)ccc2O1,-7,-28[16.7 µM]
COc1ccccc1C(=O)Nc1ccc2c(c1)C(=O)N(C)C[C@H](OC)[C@@H](C)CN(CC1CC1)[C@H](C)CO2,-6,16[16.7 µM]
CCC(=O)Nc1ccc2c(c1)OC[C@@H](C)N(C(C)=O)C[C@@H](C)[C@@H](OC)CN(C)C2=O,5,-57[16.7 µM]

# Some of the compounds tested; rates above refer to the full screens.
